# SARS PLpro yeast – qHTS of Yeast-based Assay for SARS-CoV PLP. S. cerevisiae expressing SARS-CoV PLpro, growth rescue; control for the full effect not named in the record. Potency, µM (series often up to 32.9 µM), inactives show at the top dose activity, positive = growth rescue. 0.19% of 330,000 active; active means well fitted rising curve with a large enough effect; inconclusive means small, poorly fitted or top-dose-only effect; inactive means no such curve, though single readings can be large or run the other way; note: 0% is about no effect; nearly all actives have a fitted effect of over 55% in size; growth read by luminescence after 48 h
# RE007 growth inh – qHTS Assay for Inhibitors of the HIV-1 protein Vpr. S. pombe RE007 Vpr strain, BacTiter-Glo ATP luminescence, 24 h; control for the full effect not named in the record. 0.21% of 360,000 active. Potency, µM (titrated, usually from 92.2 µM), for inactives: at the highest dose activity change, negative = less growth; active = well fitted falling curve with a large enough effect; inconclusive = small, poorly fitted or top-dose-only effect; inactive = no such curve, though single readings can be large or run the other way;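 note: % is set by controls: 0 for no effect and ±100 for the full control effect; nearly all actives have a fitted effect of over 50% in size; the assay follows cell death caused by Vpr and the record does not say whether a fall means rescue or toxicity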
#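 Fission yeast RE007 carrying one integrated HIV-1 vpr copy, seeded at OD 0.01 in PMG+AL medium with 23 nL pinned compound. Grown 24 h at 30 degrees; viability read by BacTiter-Glo luminescence after 5 min.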
# StopGo reporter – High Throughput Screening for Foot and Mouth Disease Virus Antivirals. Potency, µM (series often up to 57.9 µM), without a hit: at the highest dose signal change, negative = less light. human cells with a luciferase reporter of 2A StopGo recoding; control for the full effect not named in the record. 1.2% of 410,000 active; active = well fitted falling curve with a large enough effect; inconclusive = small, poorly fitted or top-dose-only effect; inactive = no such curve, though single readings can be large or run the other way; tested in HEK293T cells; note: % is set by controls: 0 for no effect and ±100 for the full control effect; nearly all actives have a fitted effect of over 45% in size; luciferase light after 4 h
# The depositor's hits bear a star; ? = inconclusive; [ ] = dose if it differs, or a comment. Potency is the fitted concentration of half-maximal effect. Some of the compounds tested; the hit share may differ from the screen's.
mol | SARS PLpro yeast | RE007 growth inh | StopGo reporter
CN1C(C(=O)NCC2CC2)CC2Cn3c(nc4ccccc43)C21 (stereo not drawn) | -0.6% | -2.5% | -6.2%
C=CCOc1ccc(C=NNc2ccc(S(=O)(=O)Nc3ccccc3C(=O)O)cc2[N+](=O)[O-])cc1OC | 2.2% | 10.2% | -17.2%
O=C(COC(=O)c1ccc[n+]([O-])c1)Nc1ccc([N+](=O)[O-])cc1C(F)(F)F | 1.5% | -14.9% | -24.8%
Cc1ccc(NC(=O)CSCC(=O)N2CCN(C(=O)c3ccco3)CC2)cc1 | 3.0% | -6.3% | -19.9%
CSCCCc1cn([C@@H](CO)C(=O)NCCCCCCCCCCC(=O)N2CCNCC2)nn1 | 2.7% | 0.0% | -11.3%
CCCNC(=O)CCn1cc(-c2ccc(OC)cc2)nc1CCN | 2.7% | 10.8% | 5.3%
COc1ccc([C@H]2CC(=O)C=C(c3ccc(-c4ccccc4)cc3)C2)cc1OC | 0.1% | -3.2% | -17.8%
NC(N)=N/N=C/c1ccc(Br)cc1 | 0.7% | -8.2% | -26.6%
CCN1CCN(c2cc(=O)n(Cc3ccc(F)cc3)c(=O)[nH]2)CC1 | 3.8% | 23.5% | -7.5%
Cc1sc2nc(CN3CCCC3)nc(N3CCN(S(=O)(=O)c4ccccc4)CC3)c2c1C | -7.1% | 0.2% | -27.4%
C[C@H](NC(=O)c1nc[nH]c1C(=O)NCCCCCNC(=O)OC(C)(C)C)c1ccccc1 | -1.7% | -2.9% | 39.8µM*
C[C@H](NC(=O)c1ccccc1Cl)C(=O)OCCOc1cccc(Cl)c1 | -4.3% | -1.8% | 5.5%
c1ccc(-c2nc(C3CCCCC3)c3ccccc3n2)cc1 | -1.2% | 0.8% | -11.8%
COc1ccc(S(=O)(=O)N2CCCCCC2)cc1C(=O)N1CCN(c2ccccc2C)CC1 | 5.0% | -2.8% | -28.9%
CC(NC(=O)CN1C(=O)NC2(CCCC2)C1=O)c1ccc2ccccc2c1 (stereo not drawn) | 1.1% | -3.2% | 0.3%
O=C(COC(=O)c1ccc[nH]c1=O)NCCCc1ccccc1 | 1.9%[6.58 µM] | -5.3% | -5.6%
CC1CCN(C(=O)COC(=O)C23CC4CC(CC(O)(C4)C2)C3)CC1 | 3.1% | 11.4% | 44.9%[activator]
COc1cc(OC)cc(C(=O)NC(C(=O)Nc2ccc3c(c2)CCC3)C(C)C)c1 (stereo not drawn) | -7.5% | 4.1% | 6.8%
COc1cc(C(=O)NCCc2ccc(S(N)(=O)=O)cc2)ccc1OCc1c(C)noc1C | -1.4% | -6.1% | -17.4%
[O-]/[N+](=C\c1ccccc1)c1ccccc1 | 4.4% | -16.6% | 33.0%[activator]
Cc1cccc(C(=O)OCC(=O)NC(=O)NCc2ccccc2)c1 | 6.0% | 1.3% | 0.0%
COc1ccc(OCCCC(=O)Nc2ccc(S(=O)(=O)N3CCOCC3)cc2)cc1 | 16.1% | -14.6% | ?
Cc1csc(NC(=O)C(C)Oc2ccc(Cl)cc2C)n1 (stereo not drawn) | -27.3% | -19.1% | 1.1%
COCC(C)N=C1NN=C(c2cc(C)n(Cc3ccccc3Cl)c2C)CS1 (stereo not drawn) | -0.4% | 17.4% | -21.4%
O=C(c1cc(Br)ccc1OC(F)F)N1CCN2CCCC2C1 (stereo not drawn) | -1.8% | -4.8% | -3.1%
c1ccc(-c2sc3ccccc3c2-c2ccc(OCCN3CCCC3)cc2)cc1 | 3.7% | -9.3% | ?
Cc1ccc(S(=O)(=O)NCCC(=O)NNC(=O)COc2ccccc2Cl)cc1C | 4.0% | 2.1% | 18.8%
CCOC(=O)[C@@H]1[C@H]2COc3cc(OC)ccc3[C@H]2N2C(=O)N(c3cccc(F)c3)C(=O)[C@]12C | 5.8% | 5.0% | 13.9%
CCOC(=O)C1CCN(C(=O)c2ccc(S(=O)(=O)Nc3ccccc3OC)cc2)CC1 | 3.4% | 14.2% | ?
Cc1ccc(Nc2nnc(SCC(=O)NC3CC3)s2)cc1 | 2.1% | 5.2% | 5.0%
CN(C(=O)COC(=O)c1ccccc1SCC(=O)N1CCCC1)C1(C#N)CCCCC1 | 0.7% | -4.2% | 3.5%
Cc1ccc(CNC(=O)c2ccc(N3CCC4(CC3)CC(c3cccc(Br)c3)=NO4)c(NC(=O)c3c(Cl)cccc3Cl)c2)cc1 | 1.6% | 1.7% | -5.6%
CCN1CCc2nc3ccccc3c(C(=O)Nc3ccc(C#N)cc3)c2C1 | -1.3% | -7.0% | 20.3%
CCOc1ccccc1N(CC(=O)Nc1c(C)n(C)n(-c2ccccc2)c1=O)S(=O)(=O)c1ccccc1 | -1.1% | 23.2% | 10.8%
C=CCC[C@H](Cc1ccc(F)cc1)C(=O)OC[C@@H](Cc1c[nH]c2ccccc12)NC(=O)[C@H](CC=C)CC(=O)NCCO | -0.3% | 7.8% | ?
COc1cccc(/C=N/NC(=O)CNC(=O)c2ccc(S(=O)(=O)N3CCCC3)cc2)c1OC | 0.4% | 17.4% | -4.9%
CC(C(=O)N1CCCc2ccccc21)N1CCN(c2ccccn2)CC1 (stereo not drawn) | 1.3% | 4.8% | ?
C#CC[N+]1(C)C2CCC1CC(O)C2 (stereo not drawn) | 0.2% | 2.9% | 8.0%
CCC(C)(C)NC(=O)C(c1ccccn1)N(C(=O)c1csnn1)c1ccc(C)c(C)c1 (stereo not drawn) | -1.0% | -16.0% | 3.1%
Cc1ccccc1-c1nc2c(s1)CCc1onc(-c3ccc(Cl)cc3)c1-2 | 0.5% | 3.6% | -10.2%
CCN(CC)CCNc1oc(-c2ccccc2)nc1S(=O)(=O)c1ccccc1 | 3.7% | -18.4% | 7.8%
Cn1cccc1C(=O)NC(=O)COC(=O)CCNS(=O)(=O)c1cccc(C(F)(F)F)c1 | -1.3% | 7.3% | -20.1%
Cn1ccnc1SCC(=O)Nc1ccc(F)c([N+](=O)[O-])c1 | -2.1% | 8.0% | -11.6%
COC(=O)[C@H](C)N(Cc1ccc(Cl)c(Cl)c1)S(=O)(=O)CCN1CCN(c2ccccc2)CC1 | -5.0% | -10.2% | ?
Cc1c(C(=O)Nc2cc(S(=O)(=O)N3CCOCC3)ccc2N2CCOCC2)oc2ccccc12 | -0.6% | -11.8% | -21.2%
O=C(Cc1c(Cl)cccc1Cl)N1CCN(S(=O)(=O)c2cccs2)CC1 | -0.3% | 1.4% | -9.5%
O=C1CC/C=C\C[C@@H](CC(=O)N(CCO)Cc2ccccc2)C(=O)N[C@H](Cc2ccccc2)CO1 | -27.3% | -9.1% | 2.4%
COc1cc2c(C#CCO)c(-c3ccc(C#N)cc3)oc(=O)c2cc1OC | -2.1% | -8.9% | -9.2%
Cc1ccc(C(=O)NCC(=O)OC(C)C(=O)Nc2ccc(N(C)C)cc2)s1 (stereo not drawn) | 1.7% | -0.4% | 11.9%
C[C@@H]1COC(=O)CCC/C=C\C[C@@H](CC(=O)N(CCO)Cc2ccccc2)C(=O)N1 | 0.0% | -13.7% | -15.2%
Cc1ccc(C2CN(CCC(N)=O)C(=O)CO2)cc1 (stereo not drawn) | 0.0% | 6.5% | 2.6%
CC(C)[C@H](NC(=O)c1ccc(Br)cc1)C(=O)NC1CCCCC1 | 2.9% | -8.2% | 47.1%[activator]
CCC(C)C1/C=C\CC(NC(=O)OCC2c3ccccc3-c3ccccc32)CC(=O)N1Cc1ccccc1 (stereo not drawn) | 2.8% | -3.1% | -23.6%
Cn1cccc1C(=O)OCC(=O)NCc1ccc2c(c1)OCO2 | -1.0% | -0.5% | 34.5%[activator]
Cc1ccc(NC(=O)COC(=O)c2ccc(-n3cnnn3)cc2)c(Br)c1 | -2.4% | -17.7% | -24.3%
CC(C)(C)OC(=O)C[C@H]1C/C=C\C[C@@H](CC(=O)NCCO)C(=O)N[C@H](Cc2ccccc2)COC1=O | 6.8% | 3.4% | -17.3%
CN1CC(COCc2ccccc2)Oc2ccccc2S1(=O)=O (stereo not drawn) | 7.9% | -2.7% | 9.3%
Cc1ccc(S(=O)(=O)NC(CC(C)C)C(=O)NCCCn2nc(C)cc2C)cc1 (stereo not drawn) | 0.1% | 2.8% | 12.7%
Cc1cc(=O)oc2cc(OCC(=O)N3CCN(C(=O)c4ccco4)CC3)ccc12 | -3.8% | 0.1% | -11.3%
O=C(CCCOc1ccccc1)Nc1cccc(S(=O)(=O)N2CCCCCC2)c1 | 1.0% | -7.6% | -16.0%

# Additional results follow.
mol | SARS PLpro yeast | RE007 growth inh | StopGo reporter
COc1ccc(C2=NN(c3ccccc3)C(=O)/C2=C\c2ccc(O)c(OC)c2)cc1 | -1.5% | -16.2% | 36.7%[activator]
Cc1c(NC(=O)c2cccc(NC(=O)Cc3c(F)cccc3Cl)c2)c(=O)n(-c2ccccc2)n1C | 6.8% | ? | 0.0%
CCN(C[C@H]1N[C@@](CC)(C(=O)OC)[C@H]2C(=O)N(C)C(=O)[C@@H]12)S(=O)(=O)c1ccc(OC)cc1 | 14.9% | -8.0% | 0.0%
CC(Oc1ccc(C(C)(C)C)cc1)C(=O)NCC(c1ccco1)N1CCCC1 (stereo not drawn) | 4.6% | -5.8% | 0.0%
Cc1cc(C(=O)NC2CCCCC2)c2cc(F)ccc2n1 | 0.8% | 11.2% | -18.4%
CC1(C)O[C@@H]2[C@H](O1)[C@@H](COS(=O)(=O)O)O[C@H]2n1c(=S)[nH]c2c(=O)[nH]c(N)nc21 | -1.0% | 0.2% | -11.3%
O=C(NCc1ccccc1)c1ncn(Cc2ccccc2)c1C(=O)NCc1ccccc1 | 0.6% | 11.9% | -21.7%
CCN(c1ccccc1)S(=O)(=O)c1cc(C(=O)NCc2ccco2)ccc1C | -18.1% | 5.6% | 7.1%
O=C(O)Cc1c(C(=O)O)nnn1-c1ccc(Cl)cc1Cl | -7.1% | 2.8% | -1.9%
CC(C)CC(NC(=O)c1ccccc1NC(=O)c1ccccc1)C(=O)O (stereo not drawn) | -3.2% | -4.6% | -9.8%
COc1ccc(C(=O)NCC(=O)OCC(=O)NC2CCCCCC2)cc1OC | 1.0% | -3.0% | 7.6%
CCCCCCSc1cccc(-c2nc3ccc(C)cn3c2NC2CCCCC2)c1 | -16.0% | -10.4% | -15.3%
O=C1c2ccccc2[C@@H]2C[C@@H](O)[C@H](Nc3cccc4ccccc34)CCN12 | -0.2% | 4.6% | -19.3%
O=C(C1CCC1)N1CCN(S(=O)(=O)c2ccc([N+](=O)[O-])cc2)CC1 | -0.5% | 12.9% | -7.0%
Cc1cccc(NC(=O)COC(=O)c2cccc(S(=O)(=O)N3CCCCCC3)c2)c1 | 3.7% | -6.9% | -4.8%
Cn1c(CC(=O)NNC(=O)c2ccccc2F)nc2ccccc21 | 2.2% | 1.5% | 10.8%
CC1(C)CC(=O)C/C(=N\NC(=S)NCc2ccccc2)C1 | 0.6% | 21.8% | 11.4%
CSc1ccccc1NC(=O)CN(C)C(=O)c1ccc(-n2cccn2)cc1 | -7.1% | -3.1% | -6.6%
CN(C(=O)CSc1nc2ccccc2n1C)C1CCS(=O)(=O)C1 (stereo not drawn) | -2.8% | 0.4% | -4.1%
C[C@@H]1C(=O)N(c2ccccc2)[C@@H]1c1ccncc1 | 15.5% | -9.1% | -20.6%
CN(C)C1=NC[C@H](Cc2ccccc2)N1CCc1ccc(F)cc1 | 0.9% | -13.8% | 0.0%
CCCCN1C(Nc2ccccc2)=NC[C@@H]1CC(C)C | 1.0% | -18.2% | -12.2%
Cc1ccc(NC(=O)Cc2ccccc2F)cc1S(=O)(=O)N1CCCCCC1 | 1.1% | 7.4% | -10.8%
CC(C)C(NC(=O)c1ccccc1)C(=O)NCCc1ccccc1 (stereo not drawn) | -1.0% | 3.7% | 11.1%
O=C(O)CCn1cc(-c2ccc(Cl)cc2)nc1-c1ccc(Cl)nc1 | -11.0% | -24.7% | -19.7%
CC12CCC(=O)N1C(C(=O)NNC(=O)c1ccccc1Cl)CS2 (stereo not drawn) | -6.3% | 1.4% | -9.5%
COC(=O)Nc1ccc(S(=O)(=O)N2CCCC(C(=O)N3CCC(C)CC3)C2)cc1 (stereo not drawn) | 0.9% | 3.3% | -18.6%
COc1cccc(NC(=S)N2CCn3c(nc4ccccc43)C2)c1 | -1.5% | -9.5% | 8.3%
Cc1ccc(CN2CC(C(=O)N3CCN(c4ccccc4Cl)CC3)CC2=O)cc1 (stereo not drawn) | -8.2% | 10.5% | ?
COc1ccc(C(=O)NCC2OCCc3ccccc32)cc1OC (stereo not drawn) | -1.2% | 13.4% | -5.3%
CC[C@]12c3[nH]c4cc(-c5ccco5)ccc4c3CCN1C(=O)[C@@H](CC(=O)NCCCN(C)C)C[C@@H]2C(=O)N1CCN(C(=O)C2CC2)CC1 | -13.9% | -16.3% | -6.1%
O=C(CCN1C(=O)/C(=C/c2cccc(Br)c2)SC1=S)Nc1cccnc1 | -0.4% | 7.8% | 3.4%

# High-throughput results as filed in PubChem.
